Rce1 inhib: blocks yeast Ras-converting enzyme | calls only | yeast membranes, quenched prenylated peptide cleavage fluorescence | actives 0.27% (n = 290,000) | Q03530 | AID 2563;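 active = fall in fluorescence gain of 50% or more versus controls, with final raw signal at or below 3038400; inconclusive = same 50% fall but final raw signal above 3038400; inactive = fall in fluorescence gain under 50%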;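 also: plate controls were neutral control wells for no effect and wells lacking membranes for full effect; tested at 10 µM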
Target sequence (Q03530 whole entry, looked up): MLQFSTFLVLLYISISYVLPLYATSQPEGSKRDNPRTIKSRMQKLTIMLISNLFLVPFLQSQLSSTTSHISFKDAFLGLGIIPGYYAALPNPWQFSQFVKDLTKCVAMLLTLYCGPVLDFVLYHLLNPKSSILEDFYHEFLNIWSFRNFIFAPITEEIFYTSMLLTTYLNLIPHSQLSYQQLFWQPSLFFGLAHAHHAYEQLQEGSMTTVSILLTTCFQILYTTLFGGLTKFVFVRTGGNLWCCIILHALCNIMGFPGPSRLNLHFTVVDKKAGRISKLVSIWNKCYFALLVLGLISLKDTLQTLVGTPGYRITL
MT1-MMP act inh: blocks activation of human MT1-MMP. P50281. HT1080 RFP-PRO-GFP cells, GFP/RFP ratio fluorescence, overnight; percent of plate control window, DMSO zero. GFP/RFP ratio change, % at 20 µM. actives 0.061% (n = 360,000);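 active = GFP/RFP ratio change of at least 30% with cell ATP level not reduced by more than half and red fluorescence within 50% of control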; also: strong numbers were not always called active
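Material – HT1080 RFP-PRO-GFP cells · Control set – DMSO wells and RFP-L50D-GFP cells · Incubation – overnight cell settling, then overnight compound exposure, 37 °C, 5% CO2 · Compound dosing – single-point 20 µM compound, 1% DMSO · Read-out – GFP/RFP fluorescence ratio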
UUG fidelity: yeast start codon fidelity modulation. S. cerevisiae UUG-firefly luciferase reporter, luminescence/redox ratio. activity score, % at 18.7 µM. actives 0.13% (n = 350,000). AID 602363;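 active = replicate mean at a twofold rise or more, about +100% in these data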;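 also: firefly luciferase made from a UUG start codon reports start codon fidelity; reporter light over untreated wells divided by growth signal over untreated wells; some hits fall short of that in this replicate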
PABP FP inh: PABP-poly(A) binding inhibition | P11940 | actives 1% (n = 290,000) | AID 2014 | PABP-poly(A) RNA binding, fluorescence polarization | inhibition, % at 35 µM;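 active = 50% or more with normal probe brightness, or confirmed in later tests; inconclusive = above 50% with abnormal brightness, or retests that disagree; inactive = below 50% or failed in later tests; about a fifth of its hits are not listed in these tables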;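 also: calls also rest on retests at 20 µM and on dose response follow-up; controls were probe without protein and protein plus probe with vehicle; some compounds called inactive have numbers as strong as hits; many hits fall short of the cut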
Target sequence (P11940 whole entry, looked up): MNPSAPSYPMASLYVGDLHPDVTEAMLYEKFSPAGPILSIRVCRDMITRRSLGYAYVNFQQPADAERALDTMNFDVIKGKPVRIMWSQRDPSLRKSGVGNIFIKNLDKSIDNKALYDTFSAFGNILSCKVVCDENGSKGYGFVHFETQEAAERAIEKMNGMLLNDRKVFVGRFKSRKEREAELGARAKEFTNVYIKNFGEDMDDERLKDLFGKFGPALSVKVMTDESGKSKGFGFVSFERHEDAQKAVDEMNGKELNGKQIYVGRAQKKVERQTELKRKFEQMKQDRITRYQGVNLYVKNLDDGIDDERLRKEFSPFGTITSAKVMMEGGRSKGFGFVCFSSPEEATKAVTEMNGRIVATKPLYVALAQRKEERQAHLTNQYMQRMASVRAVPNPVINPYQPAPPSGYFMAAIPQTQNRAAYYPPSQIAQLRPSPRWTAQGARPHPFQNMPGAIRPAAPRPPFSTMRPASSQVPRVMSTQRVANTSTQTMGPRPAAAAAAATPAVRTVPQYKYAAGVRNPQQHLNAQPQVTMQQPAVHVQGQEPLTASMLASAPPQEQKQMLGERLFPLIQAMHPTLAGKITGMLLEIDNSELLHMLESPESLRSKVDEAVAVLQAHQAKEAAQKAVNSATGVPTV
CSC inhib: cancer stem cell inhibition | cancer stem cell-like cells viability, luminescence | actives 1.1% (n = 300,000) | inhibition, % at 7.5 µM;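 active = mean at 75% or more and at least half the replicates too; inconclusive = mean and replicates disagree; tested in HMLE shEcad cells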;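 also: 0% = median of negative and 100% = median of positive control wells; the first replicate is given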
eIF4H FP inh: inhibitors of RNA binding by human eIF4H | eIF4H fluorescence polarization binding assay | inhibition, % at 35 µM | actives 0.94% (n = 290,000) | AID 2012;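 active = 50% or more with normal probe brightness, or confirmed in later tests; inconclusive = above 50% with abnormal brightness, or retests that disagree; inactive = below 50% or failed in later tests; about a fifth of its hits are not listed in these tables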;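 also: calls also rest on retests at 20 µM and on dose response follow-up; 0% = protein and probe with vehicle and 100% = probe without protein; strong numbers were not always called active; many hits fall short of the cut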
Env fusion inh: inhibitors of HIV Env-mediated cell fusion. HeLa-JRFL Env/CEM21 cell fusion, luciferase. inhibition, % at 12.3 µM. AID 651610. actives 1.1% (n = 360,000);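 active = mean replicate inhibition score of at least 50 and every replicate individually at or above 50; inconclusive = only one of the two criteria met; inactive = mean below 50 and not all replicates reaching 50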;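 also: 0% = plate neutral controls and 100% = maraviroc near 300 nM; one replicate is shown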
MT1-MMP act inh RFP: second read-out of MT1-MMP act inh, no call of its own (marks repeat the call); RFP signal change, %; measured here: RFP expression control read;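 0 = vehicle wells; hits needed this value within 50% of zero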
* marks the source's active call; other numbers are inactive results; i = inactive; ? = inconclusive; . = not tested or not shown; + = active, no number.

compound,Rce1 inhib,MT1-MMP act inh,MT1-MMP act inh RFP,UUG fidelity,PABP FP inh,CSC inhib,eIF4H FP inh,Env fusion inh
CCOC(=O)c1nc(-c2ccc(OC)c(OC)c2)cnc1C#N,i,0,5,-15,10,-12,3,-7
CCN(CCn1cccn1)C(=O)c1cc(COc2c(F)cccc2F)on1,i,3,4,3,4,-14,6,7
CCC(C)NC(=O)Cn1cnc2sc(C)c(S(=O)(=O)N3CCN(c4ccccc4OC)CC3)c2c1=O (configuration not stated),i,0,-3,.,9,3,-6,5
COc1cc(CN2CCN(Cc3ccc(C)cc3)C(CCO)C2)cc(OC)c1O (configuration not stated),i,4,7,.,-7,11,-3,1
Cc1cc(Cl)ccc1OC(C)C(=O)Nc1ccc(C(=O)Nc2ccccc2C(=O)O)cc1 (configuration not stated),i,3,5,-11,26,-4,8,-10
CCOc1[nH]n(-c2ccccc2)c(=O)c1C=NCc1cccnc1,i,4,-3,-9,0,-3,4,8
CSc1nc2ccsc2c(=O)n1-c1ccccc1,i,-1,0,0,14,3,-11,1
OCCNCCOc1ccc(Cl)c(Cl)c1,i,-3,1,-20,-1,1,-3,.
CCN(CC)c1ccc(/C=N/NC(=O)c2c(Cl)cnn2C)c(O)c1,i,-7,-9,.,7,-6,3,23
C=CCc1cc2c(oc(=O)c3ccccc32)c(C)c1O,i,-23,-13,-10,-12,5,-6,3
Cc1ccsc1/C=N/NC(=O)c1c[nH]c2ccccc12,i,-7,-6,-13,-2,17,-3,-71
CCCNC(=O)CN(C)S(=O)(=O)c1c(C)cc(C)cc1C,i,1,2,-9,-7,0,0,.
Cc1ccc(NC(=O)NCCN2CCCCC2)cc1,i,0,1,-12,0,-19,26,-96
CCCNC(=O)CN(C)CC(=O)Nc1ccccc1C#N,i,1,5,.,-8,-12,-4,21
CC(C)(C)c1cc[n+](-c2[nH]c(=O)sc2/C=N/NC([S-])=Nc2ccccc2)cc1,i,-87,5,-23,?,-8,?,7
Cc1cccc(C(=O)NCC(=O)OCC(=O)N2CC3(C)CC2CC(C)(C)C3)c1 (configuration not stated),i,-1,2,.,-3,-13,-1,-2
COc1ccc(CN2CC(C(=O)NCCN3CCN(c4ccccc4F)CC3)CC2=O)cc1 (configuration not stated),i,2,-2,-5,20,2,1,.
COc1ccc(OC)c(C2CC(c3c(-c4ccccc4)c4cc(Cl)ccc4[nH]c3=O)=NN2S(C)(=O)=O)c1 (configuration not stated),i,-2,-4,1,-2,5,-11,.
CC(Sc1nnc(-c2ccc(Cl)cc2)n1N)C(=O)NCC1CCCO1 (configuration not stated),i,0,0,.,.,-12,.,-3
CC(C)(C)OC(=O)N1CCN(C(=O)[C@H](Cc2ccc(O)cc2)n2cc(CCO)nn2)CC1,i,-2,4,0,-6,-5,-8,-11
CC12CN3CC(C)(CN(C1)C3c1cc3ccccc3[nH]1)C2=O (configuration not stated),i,2,1,.,0,-8,2,.
COc1ccc(NC(=O)NC2CCCc3ccccc32)c(OC)c1 (configuration not stated),i,-5,-7,-12,-1,-4,-6,7
O=C(COC(=O)C1CCC1)NCc1ccccc1Cl,i,-3,3,-15,1,13,-2,.
CCN(Cc1ccccc1)C(=O)CCS(=O)(=O)c1ccc2c(c1)CCN2C(C)=O,i,-16,-5,-25,-2,-13,-5,-3
O=C(c1ccccc1[N+](=O)[O-])N1CCN(Cc2ccc3c(c2)OCO3)CC1,i,1,2,-14,8,-15,2,10
Cc1ccc(-c2cc3ccccc3nc2N2CCOCC2)cc1,i,1,-2,.,12,1,-1,6
O=C(COc1ccc(Cl)cc1Cl)Nc1ccc2nc3n(c(=O)c2c1)CCCC3,i,2,-5,-7,-5,4,2,.
CCOc1ccccc1CN1CCC(n2nccc2NC(=O)CCCc2ccccc2)CC1,i,-1,-3,-11,-2,8,3,-14
COc1ccc(C(C)=O)cc1CS(=O)(=O)CC(=O)O,i,-4,-1,.,-2,-16,3,10
O=C(c1ccc([N+](=O)[O-])cc1)N1C=CC(C(F)(F)F)=NCC1,i,0,2,.,-3,-5,1,5

(list continues)
compound,Rce1 inhib,MT1-MMP act inh,MT1-MMP act inh RFP,UUG fidelity,PABP FP inh,CSC inhib,eIF4H FP inh,Env fusion inh
CCOc1cc(NC(=S)NCC2CCCO2)c(OCC)cc1NC(=O)c1ccc(OC)cc1 (configuration not stated),i,0,1,.,12,5,-1,10
CCC1(C)Cc2c(sc3nnn(CC(=O)Nc4ccccc4)c(=O)c23)CO1 (configuration not stated),i,4,-2,-2,-6,-3,-6,.
Clc1ccc2nc(SCc3nnc(-c4ccccc4)o3)[nH]c2c1,i,-3,2,-17,-2,-13,-8,-9
CCOC(=O)C1CCN(C(=O)c2ccc3c(c2)OCCO3)CC1,.,-1,1,-12,.,-19,.,15
COc1ccccc1NC(=O)NC1(C(=O)N2CCCCC2)CCCCC1,.,-1,1,-11,-4,-11,-9,18
CCc1ccc(Nc2ncc3c(n2)CC(c2ccc(OC)cc2)CC3=O)cc1 (configuration not stated),i,-3,-3,-13,-8,13,-12,18
O=S1(=O)CCN(Cc2ccc(Cl)cc2)CC1,i,3,1,-13,-6,-13,-5,.
COc1ccc(C(=O)NC(=S)Nc2ccccc2F)cc1,i,4,8,.,-4,-9,-8,.
Cc1nc(SCC(=O)Nc2ccccc2Cl)c2c(C)c(C)sc2n1,.,-1,-7,-13,.,.,.,0
COCCCC1CCN(C(=O)c2cc(COc3cc(C)ccc3C)on2)CC1,i,1,4,-4,2,35,-4,-49
COc1ccccc1-c1nnc(N(C)C(=O)C2CCCO2)s1 (configuration not stated),i,5,1,-17,0,-3,-8,-80
CCOc1cc(C(=O)Nc2ccncc2)cc(OCC)c1OCC,i,3,0,.,-3,8,-2,6
COc1cc(/C=C/C(=O)N2CCCc3ccccc32)cc(OC)c1OC,i,6,8,0,-11,21,-6,12
CC1(C(=O)Nc2ccc3c(c2)OCO3)Cc2c(-c3ccccc3)ccnc2O1 (configuration not stated),.,3,1,-41,.,.,.,10
CCCOC(=O)C1=C(C)NC2=C(C(=O)CCC2)C1c1cc(OC)ccc1OC (configuration not stated),i,-4,0,40,-9,-4,2,-3
Cc1cccc(NC(=O)c2cc(NC(=O)C3CCCCC3C(=O)O)ccc2N2CCOCC2)c1 (configuration not stated),i,2,0,9,-10,-5,10,9
CCC(C(=O)NC1CCCC1)N(C(=O)Cn1nnc(-c2ccc(C)o2)n1)c1cnc2ccccc2c1 (configuration not stated),i,-1,4,-23,-8,-8,0,.
Cc1ccc(NCc2nc3ccccc3n2C)cc1,i,5,3,-70,-17,-5,-1,.
COc1cc(/C=C(\C#N)C(=O)Nc2cccc3ncccc23)cc(OC)c1OC,i,-8,-3,.,-10,20,2,-6
Cn1cnnc1SCC(C)(C)NS(=O)(=O)c1ccc(Cl)cc1,i,0,2,-10,2,-10,-1,-4
Cn1c(=O)[nH]c(=O)c2c1nc(NN)n2CCOc1ccccc1,i,-5,3,-13,2,.,29,17
COC(=O)c1ccc(NS(=O)(=O)N(C)C)cc1,i,-5,1,.,2,-13,0,1
CC(=O)c1ccc(N(C(=O)Cn2nnc(-c3ccccc3)n2)C(C(=O)NC2CCCCC2)c2ccccn2)cc1 (configuration not stated),i,0,4,-10,10,2,5,-67
O=C(CN1CCc2ccccc21)NC(=O)NCc1ccco1,i,-3,0,-9,2,-4,-3,29
O=C(Nc1ccc(S(=O)(=O)Nc2ncccn2)cc1)C1CC(=O)N(c2ccc(Cl)cc2)C1 (configuration not stated),i,2,1,-7,10,-18,5,-12
C=CCOC(=O)c1cn(CC)c2nc(C)ccc2c1=O,i,7,5,-8,-2,-12,-3,14
O=C(c1cccs1)N1C[C@@H](n2cc(C3CC3)nn2)[C@H](O)C[C@@H]1c1ccc(Cl)cc1,.,3,0,4,.,.,.,-44
CCOC(=O)c1csc(NC(=O)CCSc2ccccc2)n1,.,-15,-8,.,-5,-3,2,11
Cc1nonc1C(=O)N/N=C/c1cc2c(cc1Br)OCO2,i,.,.,.,0,.,-10,3
COc1ccccc1N1CCN(C(=O)c2cc(=O)c3c(C)cc(C)cc3o2)CC1,i,1,3,5,5,-4,-5,4

(listing goes on)
compound,Rce1 inhib,MT1-MMP act inh,MT1-MMP act inh RFP,UUG fidelity,PABP FP inh,CSC inhib,eIF4H FP inh,Env fusion inh
Cc1cccc(-n2c(SCC(=O)NCc3ccco3)nnc2-c2ccco2)c1,i,3,4,.,.,-1,.,-13
O=C(/C=C/c1ccccc1[N+](=O)[O-])N1CCN(c2ccccc2F)CC1,i,2,6,.,-4,8,-3,3
CC1=CC(c2ccccc2)n2nnnc2N1 (configuration not stated),i,-4,0,-16,-10,-9,0,-12
O=C(NCCc1ccccc1)/C(=N\O)c1ccccc1,i,-1,-1,-42,-2,-7,-11,.
CCn1c(=O)cc(SCC(=O)NCc2ccc(C)o2)c2ccccc21,i,5,3,-1,8,.,-3,-129
COc1cc(C=NNC(=O)c2ccc(NS(=O)(=O)c3cccs3)cc2)cc(Br)c1O,.,0,-3,3,.,-15,.,0
CC(=O)Nc1ccccc1Sc1ccccc1,i,4,-2,-7,-4,-7,-2,.
O=C(NCCc1c[nH]c2ccccc12)c1ccc(F)cc1F,i,3,3,3,9,7,-2,-30
c1ccc(C2CNCCc3ccccc32)cc1 (configuration not stated),i,-1,0,-18,-8,5,-1,19
O=C(NCc1ccccc1)c1cncc(Br)c1,i,-3,5,-12,-10,-8,-3,.
O=c1c2c(nc3c(-c4ccc(Cl)cc4)c[nH]n13)CCCC2,i,0,-6,-9,14,.,-2,62*
COc1cc2ccccc2cc1C(=O)N/N=C/c1ccc2c(c1)OCO2,i,-2,-11,-9,-14,55,-17,-130
CCC1=NN(C(=O)CCc2ccccc2)C(O)(C(F)(F)F)C1 (configuration not stated),i,-2,3,-26,-3,-17,-9,.
CC(C)c1ccc(NC(=O)CNC(=O)Cn2cnc3ccccc3c2=O)cc1,i,-2,-6,.,-4,.,-5,-5
Cc1occc1-c1nnc(SCC(=O)N2CCOCC2)n1CCc1ccccc1,i,-2,-1,-8,0,12,-8,.
COc1ccc(C(=O)NCCCNc2nc3cc(C)cc(C)c3cc2C#N)cc1,.,-2,-3,5,.,.,.,6
CN(C)S(=O)(=O)c1ccc(Cl)c(NC(=O)COC(=O)CCSc2ccccc2)c1,i,.,.,.,3,5,-6,-2
Cc1ccc(OCCCC(=O)N(C)CC(=O)Nc2c(C)cccc2C)cc1,.,-1,-1,-7,.,.,.,-132
Cc1ccc(C(=O)C(C)OC(=O)C2CC(=O)N(C3CCCCC3)C2)cc1 (configuration not stated),i,-3,1,5,-4,-13,2,-1
COc1ccccc1NC(=O)c1ccc(NC(=O)CSc2ncn[nH]2)cc1,i,2,3,.,-10,-13,-7,-13
Cc1ccccc1-n1nnnc1SCC(=O)c1c(N)n(C)c(=O)n(C)c1=O,i,4,-4,-13,6,.,-8,1
N=c1c2c(ncn1Cc1ccco1)Oc1ccc3ccccc3c1C2c1ccccc1 (configuration not stated),+,-22,-30,.,12,102*,3,.
CC(NC(=O)CSc1ncccn1)c1ccc2c(c1)OCO2 (configuration not stated),.,-3,5,-9,.,-14,.,-28

Screening results deposited in PubChem BioAssay by several laboratories.

Not all compounds are listed; rates above refer to the full screens.
